# Source: PubChem
# Mtb H37Rv: Confirmatory growth inhibition assay against Mycobacterium tuberculosis H37Rv, potency (AID 1949) | 100,000 compounds, 1.6% hits | most inactive calls were filed without a number and no value below 0 was filed | one-dose inhibition, % at 10 µg/mL; IC50 in µg/mL for titrated hits;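 active = confirmed in a dose series; inconclusive = about 50% or more but not retested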;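 also: bacteria grown 7 days with compound before Alamar blue readout; 0% = untreated bacteria and 100% = reference antibiotic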
# * = called active by the depositor; i = inactive; ? = inconclusive. This is a subset; the hit share may differ from the screen's.
Compound	Mtb H37Rv
Cn1c(=O)c2ncn(CC(=O)Nc3ccc(Br)cc3)c2n(C)c1=O	i
COc1ccccc1CC(=O)Nc1ccc(Cl)cc1C	0%
COc1ccccc1NC(=O)c1ccc(-c2cccc(C(F)(F)F)c2)o1	i
CCOC(=O)c1ccc(N2NC(=O)/C(=C/c3ccc(OC(=O)c4cccs4)c(OC)c3)C2=O)cc1	i
CCC(C)NCCCOc1c(C)cc(Cl)cc1Cl (stereo unspecified)	i
CN(C)S(=O)(=O)c1ccc(-c2ccccc2)cc1	i
O=C(NCc1ccccc1Cl)C(=O)Nc1ccc(Oc2ccccc2)cc1	i
N#Cc1cccc(NC(=O)Cc2ccccc2)c1	i
O=S(=O)(c1ccc(Br)s1)N1CCN(c2ncnc3scc(-c4cccs4)c23)CC1	3%
CCOC(=O)c1c(NC(=O)c2ccco2)sc(C)c1-c1ccc(OC)c(OC)c1	i
Cc1cccnc1NC(=S)Nc1ccc([N+](=O)[O-])cc1	39%
CC(NS(=O)(=O)c1ccccc1)C(=O)Nc1ccc(I)cc1 (stereo unspecified)	?
O=S(=O)(NC(=S)NC1CCCCC1)c1ccc(Cl)cc1	i
CCOc1ccccc1NC(=O)CN(c1cccc(C)c1)S(C)(=O)=O	i
O=S(=O)(NCc1ccccn1)c1cccc(F)c1	i
CS(=O)(=O)N(CC(=O)NCc1ccco1)c1cc(Cl)ccc1Cl	i
O=C(COc1ccc(Cl)cc1Cl)NCCC1=CCCCC1	11%
COc1ccc(S(=O)(=O)N(C)CC(=O)NC2CCCCC2)cc1OC	i
O=C(O)c1ccc(Cl)cc1NC(=O)C1CCCO1 (stereo unspecified)	i
COc1ccc(-c2nc(-c3ccccc3)no2)c(OC)c1	3%
COc1ccccc1N1CCN(C(=O)c2ccc(S(=O)(=O)N3CCCC3)cc2)CC1	i
CC(=O)Nc1ccc(OC(=O)c2cccc(Br)c2)cc1	i
COc1ccccc1C1C(Oc2ccccc2)C(=O)N1c1cccc([N+](=O)[O-])c1 (stereo unspecified)	i
O=C(Cc1c(F)cccc1Cl)NCc1ccccn1	i
Cc1cccc(NC(=S)NC(=O)CCCOc2ccc(Cl)cc2Cl)c1C	1%
COc1cccc(C(=O)COc2ccc3c(C(F)(F)F)cc(=O)oc3c2)c1	i
S=C(Nc1ccc2c(c1)OCO2)N1CCN(c2ccccc2)CC1	i
COc1cc(C(=O)Nc2ccccc2C(=O)NC2CCCCC2)cc(OC)c1OC	i
COCCNC(=S)Nc1ccccc1OC	i
Cc1ccc(N2CCN(S(=O)(=O)N3CCOCC3)CC2)c(C)c1	i

# Structural class: the compounds so far containing a CF3 group.
Compound	Mtb H37Rv
COc1ccccc1NC(=O)c1ccc(-c2cccc(C(F)(F)F)c2)o1	i
COc1cccc(C(=O)COc2ccc3c(C(F)(F)F)cc(=O)oc3c2)c1	i

# (further entries)
Compound	Mtb H37Rv
CC(C)NC(=O)c1ccccc1NC(=O)c1ccc(F)cc1	2%
COc1ccc2c(c1)sc1nc(=O)ccn12	i
CC(C)c1nnc(NC(=O)Cn2cnc3c2c(=O)n(C)c(=O)n3C)s1	i
C=CCN(C(=O)COc1ccccc1)c1nnc(-c2ccncc2)s1	i
CCN1C(=O)c2ccc(C(=O)Nc3cccnc3)cc2C1=O	i
O=C(O)c1ccccc1NC(=O)C1CCCO1 (stereo unspecified)	0%
C=CCn1c2ccccc2c2nnc(SCC(=O)OC)nc21	?
Cc1cccc(N2CCN(S(=O)(=O)c3ccc(Br)cc3)CC2)c1C	6%
Cc1ccc(SCC(=O)NC2CCCCCC2)cc1	i
COc1ccccc1N(C)c1cc(F)c(F)c(F)c1F	i
COc1ccc(CC(=O)O/N=C(\N)Cc2ccc(Cl)c(Cl)c2)cc1OC	5%
O=C(CC12CC3CC(CC(C3)C1)C2)Nc1ccc(S(=O)(=O)N2CCOCC2)cc1	2%
CCCOc1ccccc1N1C(=O)C2C3c4ccccc4C(C)(c4ccccc43)C2C1=O (stereo unspecified)	13%
CC(=O)c1ccc(OC(=O)COc2c(C)cc(Br)cc2C)cc1	i
O=C(Nc1ccncc1)c1ccc2c(c1)OCO2	i
COc1ccc(C2CC(c3cccs3)=NN2C(C)=O)cc1OC (stereo unspecified)	0%
Cc1cc(=O)oc(C)c1C(=O)OCc1c(F)cccc1Cl	1%
Cc1occc1C(=O)Nc1cccc(C(=O)O)c1	3%
Cc1ccc(C(=O)Nc2ccc3oc(-c4cccc(C)c4)nc3c2)cc1	i
COc1ccc(S(=O)(=O)Nc2ccc(S(=O)(=O)N3CCCCCC3)cc2)cc1Br	0%
O=C(NCCc1ccccc1)C1CCCN(S(=O)(=O)c2cc(Cl)ccc2Cl)C1 (stereo unspecified)	i
CC(=O)N1CCc2cc(S(=O)(=O)Nc3cccc([N+](=O)[O-])c3)ccc21	1%
CN(c1ccccc1C(=O)Nc1ccc(OCc2ccccc2)cc1)S(C)(=O)=O	i
C=CCn1cnc2sc(C(=O)Nc3ccccc3)c(C)c2c1=O	8%
Cc1ccc(NC(=O)c2cccs2)cc1NC(=O)c1ccc(Cl)cc1	i
COC(=O)c1cc(NC(=O)CN(c2ccc(F)cc2)S(=O)(=O)c2ccc(OC)c(OC)c2)ccc1Cl	i
CC(C)CNC(=O)C(=O)Nc1ccc(N(C)C)cc1	i
COc1cc2c(cc1NC(=O)CSc1nc3ccc([N+](=O)[O-])cc3[nH]1)oc1ccccc12	i
c1ccc(CNc2ncnc3nc[nH]c23)cc1	i
Cc1ccc(F)c(NC(=O)CSc2nnnn2-c2ccccc2)c1	i
CN1CCN(CC(=O)Nc2ccc(Oc3ccccc3)cc2)CC1	i
Cn1cccc1CC(=O)NNC(=S)NC1CCCCC1	i
COc1ccc(CCNC(=O)c2ccc(Br)o2)cc1	0%
COc1ccccc1CNC(=S)Nc1ccc(OC)c(OC)c1	i
COC(=O)c1c(NC(=O)COc2ccc(Cl)cc2)sc2c1C(C(=O)OC)CC2 (stereo unspecified)	i
CC(=O)c1ccc(OC(=O)COc2ccc3ccccc3c2)cc1	1%
CCc1nc2ccccc2n1Cc1ccccc1C	i
CS(=O)(=O)N1CCN(c2ccc(NC(=O)CC34CC5CC(CC(C5)C3)C4)cc2)CC1	3%
COC(=O)C1=C(C)NC2=C(C(=O)CCC2)C1c1ccc(OCc2ccc(C)cc2)c(OC)c1 (stereo unspecified)	1%
Cc1cc(Cl)ccc1OC(=O)c1cc2ccccc2oc1=O	i
COc1ccc(NS(=O)(=O)c2ccc(NC(=S)NC(C)=O)cc2)cc1	i
C=CCn1c(CCc2ccc(OC(C)C)cc2)n[nH]c1=S	i
CCN(C(=O)Cc1ccc(OC)cc1)C1CCCCC1	i
CCN(CC)C(=O)c1sc(NC(=S)N2CCN(c3ccc(Cl)c(Cl)c3)CC2)c(C(=O)OC)c1C	i
O=C(COc1ccc2c(-c3ccccc3)cc(=O)oc2c1)Nc1ccccc1C(F)(F)F	i
CCOC(=O)c1c(C)nc(-c2ccccc2)nc1NC(=O)Cc1ccccc1	4%
CCOc1ccc(N(CC(=O)NCCSCc2c(Cl)cccc2Cl)S(C)(=O)=O)cc1	i
CCOC(=O)c1cnc2ccc(C)cc2c1NCCO	i
O=C(CSc1nnc(-c2ccc(Cl)cc2)n1Cc1ccccc1)NC12CC3CC(CC(C3)C1)C2	11%
COc1ccc(Cl)cc1NC(=O)CCN1CCN(C)CC1	i
Nc1nc(-c2ccccc2)nn1C(=O)c1ccco1	21%
CC1CCCCN1Cc1nc(N)nc(Nc2ccc3c(c2)OCCO3)n1 (stereo unspecified)	i
COc1cccc(NC(=O)c2c(NC(=O)c3cccnc3)sc3c2CCC3)c1	0.1µg/mL*
O=c1cc(-c2ccccc2)[nH]n1-c1ccc([N+](=O)[O-])cc1	11µg/mL*
C=CCNC(=O)C(=O)Nc1ccc(C)cc1C	i
CCCC(=O)Nc1ccc(S(=O)(=O)N2CCc3ccccc32)cc1	i
O=C(c1nc2ccccc2s1)N1CCC(c2ccccc2)C1 (stereo unspecified)	i
O=C(O)C1CCCCC1C(=O)NCCc1c[nH]c2ccccc12 (stereo unspecified)	i
O=c1c(Oc2ccc3ccccc3c2)coc2cc(O)ccc12	i
CNC(=O)c1cc(S(=O)(=O)N(C)C)ccc1Cl	i

# Filtered by structure, the entries above with bromine.
Compound	Mtb H37Rv
Cn1c(=O)c2ncn(CC(=O)Nc3ccc(Br)cc3)c2n(C)c1=O	i
O=S(=O)(c1ccc(Br)s1)N1CCN(c2ncnc3scc(-c4cccs4)c23)CC1	3%
CC(=O)Nc1ccc(OC(=O)c2cccc(Br)c2)cc1	i
Cc1cccc(N2CCN(S(=O)(=O)c3ccc(Br)cc3)CC2)c1C	6%
CC(=O)c1ccc(OC(=O)COc2c(C)cc(Br)cc2C)cc1	i
COc1ccc(S(=O)(=O)Nc2ccc(S(=O)(=O)N3CCCCCC3)cc2)cc1Br	0%
COc1ccc(CCNC(=O)c2ccc(Br)o2)cc1	0%

# (more compounds)
SMILES	Mtb H37Rv
CCOC(=O)c1ccc(NCc2cc(Cl)ccc2O)cc1	46%
C=CCn1c(SCC(=O)Nc2cccc(Cl)c2Cl)nnc1-c1ccccc1	i
CCc1cccc(CC)c1NS(=O)(=O)Cc1ccccc1	i
O=C1CCCC2=C1C(c1cccc([N+](=O)[O-])c1)c1c(nc(SCc3ccccc3)[nH]c1=O)N2 (stereo unspecified)	i
CS(=O)(=O)N1CCN(c2ccc(NC(=O)c3ccc(-c4ccccc4)cc3)cc2)CC1	i
COc1ccc(NC(=O)CSc2nnc(COc3ccccc3C)n2C)c([N+](=O)[O-])c1	i
COc1ccc(S(=O)(=O)N2CCN(c3cc(Cl)ccc3Cl)CC2)c2ccccc12	5%
CC1(C)CC(O)CC(C)(C)N1CC(O)COc1ccccc1Cl (stereo unspecified)	1%
Cc1ccc(N(CC(=O)Nc2ccccc2C(=O)NC2CCCCC2)S(C)(=O)=O)cc1Cl	i
O=C(CCN1CCOCC1)NNC(=O)Nc1cccc(Cl)c1	4%
CC(=O)C(Sc1nc(N(C)C)nc(N(C)C)n1)C(C)=O	i
COc1cc(OC)c(NC(=O)c2ccc(-c3ccccc3)cc2)cc1Cl	i
CCOc1ccc(-c2csc3ncn(Cc4c(F)cccc4Cl)c(=O)c23)cc1	i
COc1ccccc1NC(=O)c1cccnc1Nc1ccc(F)cc1	1%
COc1ccccc1C1CC(=O)Nc2c1ccc(C)c2C (stereo unspecified)	i
CCOc1cc(C=O)cc(Br)c1OC(=O)c1cccc(OC)c1	3%
Cn1c(CCNC(=O)c2ccco2)nc2cc(NC(=O)c3ccccc3Cl)ccc21	i
O=C(Nc1ccc(Cl)cc1C(F)(F)F)c1ccc(-c2ccccc2[N+](=O)[O-])o1	8%
COC(=O)c1ccccc1NC(=O)c1oc2cc(C)c(C)cc2c1C	i
COc1ccc(Cl)cc1C(=O)n1cccn1	6%
COC(=O)c1ccc(OCCOc2ccccc2)cc1	i
C#CCOc1c(Br)cc(C2C3=C(CCCC3=O)NC3=C2C(=O)CCC3)cc1OCC	4%
COc1ccc(Cl)cc1C(=O)NCCNC(=O)c1cc(Cl)ccc1OC	i
CCOc1ccc(-n2c(SCC(=O)Nc3ccc(F)c(Cl)c3)nc3ccccc3c2=O)cc1	3%
Cc1ccc(C)c(OCCN2CCCC2)c1C	i
COCCn1c(C)cc(C(=O)CSc2n[nH]c(N)n2)c1C	i
CCc1cccc(NC(=O)c2ccc(Cl)cc2)c1	i
Cc1ccc(C(=O)N2CCn3cccc3C2c2ccccc2)cc1 (stereo unspecified)	i
COc1ccc(C(=S)N2CCCC2)c(OC)c1	i
COc1cccc(C2Nc3ccccc3NC3=C2C(=O)CCC3)c1 (stereo unspecified)	i
CCOc1ccccc1N(CC(=O)Nc1cc(C(=O)OC)ccc1C(=O)OC)S(C)(=O)=O	i
CCOc1ccc(NC(=O)NCc2cccc(CNC(=O)Nc3ccc(OCC)cc3)c2)cc1	i
Cc1ccc(S(=O)(=O)Nc2ccc3c(c2)ncn3C(C)(C)C)cc1	4%
Cc1ccccc1CN1CCN(Cc2ccccn2)CC1	i
COc1ccc(C)cc1N(CC(=O)NC1CCCCC1)S(C)(=O)=O	i
O=C(c1ccccc1)c1ccc(OCCCN2CCOCC2)cc1	1%
C=C1Cn2c(nc3sc(C)c(C)c3c2=O)S1	2%
CC1=C(C(=O)Nc2cc(C)ccc2C)C(c2cccs2)NC(=S)N1 (stereo unspecified)	i
COc1ccc(Cc2nnc(SCC(=O)Nc3cc(C)c(C)cc3Br)n2C)cc1	i
Cc1c(Cl)c(C(F)(F)F)nn1CCCNC(=O)C1CCCC1	i

# An excerpt from above in order of length of the SMILES, low to high:
SMILES	Mtb H37Rv
COC(=O)c1ccc(OCCOc2ccccc2)cc1	i
O=C(c1ccccc1)c1ccc(OCCCN2CCOCC2)cc1	1%
CCOc1ccc(-n2c(SCC(=O)Nc3ccc(F)c(Cl)c3)nc3ccccc3c2=O)cc1	3%

# (continued)
SMILES	Mtb H37Rv
COc1ccc(S(=O)(=O)N2CCC(N3CCOCC3)CC2)cc1	i
COc1ccc(NC(=O)n2cc(C)cn2)cc1OC	i
CCN(c1ccccc1C)S(=O)(=O)c1c(C)cc(C)cc1C	9%
CCOc1ccc(N2CC(C(=O)Nc3ccccc3C(F)(F)F)CC2=O)cc1 (stereo unspecified)	i
Cc1ccc(-c2cc(C(=O)Nc3ccccc3C(F)(F)F)c3ccccc3n2)cc1C	i
Cn1c2ccccc2n2c(SCc3ccc(Br)cc3)nnc12	i
CC(C)c1ccccc1NC(=O)c1ccc(N(Cc2ccc(Cl)cc2)S(C)(=O)=O)cc1	i
CCOC(=O)CC(=O)COc1noc2nc(C)cc(C)c12	12%
